# From PubChem BioAssay
# miR-21 FLuc: raises the signal of a miR-21 reporter | HeLa miR-21 FLuc reporter, luciferase, 48 h | Potency, µM (series often up to 38.3 µM), for the others: top-dose reporter change, positive = more light | 340,000 tested, under 10 active | AID 2288; active = well fitted rising curve with a large enough effect; inconclusive = small, poorly fitted or top-dose-only effect; inactive = no such curve, though single readings can be large or run the other way;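 note: % of control where 0% means no effect; miR-21 action dims this reporter so a rising signal means less miR-21 action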
#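 Using DMEM plus 10% FBS, HeLa miR-21-FLuc cells are incubated with test compounds (final up to about 40uM) for 48 hours; firefly luciferase signal is then imaged following reagent-mediated lysis.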
# GLA inh pH 4.5: inhibitors of human alpha-galactosidase A at pH 4.5 | P06280 | purified enzyme, 4-MU-alpha-Gal fluorescence, pH 4.5 | activity change, negative = inhibition, % at 105 µM | 230,000 tested, under 10 active | AID 1467; inconclusive = small, poorly fitted or top-dose-only inhibition, or a rising curve; inactive = flat fitted curve, though single readings scatter; no compound was filed as active;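 note: 0% = full activity with enzyme and -100% = basal without enzyme; dose as in the result columns while the protocol names 77 µM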
# Rango release inh: prevents RanGTP from dissociating the Rango-importin beta complex; O95149+P62826; Biochemical FRET Rango-importin beta, RanGTP-induced dissociation; Potency, µM (highest dose often 46.1 µM), inactives show at the highest dose activity change, negative = inhibition; 0.071% of 340,000 active; AID 540253; active means falling FRET ratio curve, often poorly fitted, with flat reads before Ran was added; inconclusive means other falling curves, or compound fluorescence or quenching; inactive means flat or rising ratio curve;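 note: potency is the fitted concentration of half-maximal effect; % of control where 0% means no effect; nearly all actives have a fitted effect of over 45% in size; -100% = wells without RanGTP and RCC1; the record marks most hits as doubtful in a second field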
#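 Rango/importin beta premix (0.1/0.25 uM final), PBS + 1 mM DTT + 0.02% Tween-20 + 0.1% BSA; cpd 5 min RT; FRET pre-read; + RanGTP-RCC1 (0.6 uM Ran, 2 mM GTP, 0.2 uM RCC1); 45 min RT; FRET post-read, ex 430, em 486/530 nm.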
# Rango complex inh: Rango-importin beta binding inhibition; Q14974; Rango CFP/YFP FRET sensor + importin beta, 45 min; Potency, µM (top dose mostly 92.2 µM), for the others: at the top dose inhibition of complex formation; 0.031% of 340,000 active; active = rising FRET ratio curve, often small or poorly fitted; inconclusive = mostly compound fluorescence or quenching in the first reads; inactive = flat curves in all reads;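 note: potency is the fitted concentration of half-maximal effect; 0% = DMSO wells and 100% = buffer wells lacking importin beta; nearly all actives have a fitted effect of over 15% in size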
# Target sequence (Q14974 whole entry, looked up): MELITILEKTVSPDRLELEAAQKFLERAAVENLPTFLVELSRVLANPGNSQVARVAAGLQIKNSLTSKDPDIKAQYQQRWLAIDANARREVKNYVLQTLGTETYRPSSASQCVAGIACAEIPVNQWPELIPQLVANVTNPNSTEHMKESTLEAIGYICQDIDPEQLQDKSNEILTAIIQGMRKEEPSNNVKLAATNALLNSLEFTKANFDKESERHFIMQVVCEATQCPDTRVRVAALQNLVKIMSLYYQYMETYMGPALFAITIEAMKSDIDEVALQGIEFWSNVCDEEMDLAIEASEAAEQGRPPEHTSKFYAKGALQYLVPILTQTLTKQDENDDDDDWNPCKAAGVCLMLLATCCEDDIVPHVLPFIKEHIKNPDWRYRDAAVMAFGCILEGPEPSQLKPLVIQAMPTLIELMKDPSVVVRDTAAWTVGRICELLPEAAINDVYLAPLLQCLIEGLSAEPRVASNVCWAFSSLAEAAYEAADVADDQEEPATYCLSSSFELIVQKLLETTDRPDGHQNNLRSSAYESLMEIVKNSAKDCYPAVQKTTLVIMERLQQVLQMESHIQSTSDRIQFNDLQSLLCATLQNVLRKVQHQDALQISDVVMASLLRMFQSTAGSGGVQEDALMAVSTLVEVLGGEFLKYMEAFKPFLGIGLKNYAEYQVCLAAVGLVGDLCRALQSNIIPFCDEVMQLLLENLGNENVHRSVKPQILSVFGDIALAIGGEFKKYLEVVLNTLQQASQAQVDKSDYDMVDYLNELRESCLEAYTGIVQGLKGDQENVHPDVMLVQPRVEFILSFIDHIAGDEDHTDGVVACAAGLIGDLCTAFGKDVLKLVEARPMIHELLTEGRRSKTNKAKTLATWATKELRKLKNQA
#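 FRET biosensor Rango (snurportin 1 IBB between N-terminal EYFP and C-terminal Cerulean), 50 nM in PBS/1 mM DTT/0.02% Tween-20/0.1% BSA, preincubated 5 min RT with compound; 0.125 microM importin beta added, 45 min RT, CFP/YFP FRET ratio read.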
# The depositor's hits bear a star; ? = inconclusive; nt = not tested or not shown; & = joins results of further samples. Only part of the results is shown (hit frequency here may not be typical).
SMILES,miR-21 FLuc,GLA inh pH 4.5,Rango release inh,Rango complex inh
CC1CCN(C2=NC(=O)/C(=C/c3ccccc3F)S2)CC1,-58%,nt,-18%,4.4%
COc1cccc(C(=O)Nc2ccc3nc(N4CCOCC4)cc(C)c3c2)c1,0%,-9,2%,-2.9%
CN(CC(=O)NCCN1CCCCCC1)S(=O)(=O)c1cccc2nsnc12,-10%,-2,2%,-5.1%
Cc1oc(/N=C/c2ccc(Cl)cc2)c(C#N)c1C,0%,2,3%,-5.1%
O=C(NCc1cccnc1)C(=O)NCC(c1ccco1)N1CCOCC1 (stereo not given),-2%,-17,-10%,-3.1%
COCCOC(=O)C1=C(N)Oc2c(oc(CO)cc2=O)C1c1ccccc1F (stereo not given),-8%,1,6%,1.2%
COCCCN1C(=O)C(=O)/C(=C(/O)c2ccc(OC)cc2C)C1c1cccnc1 (stereo not given),1%,0,24%,0.3%
Cc1ccc(C(=O)N/C(=C\c2ccc(-c3cccc([N+](=O)[O-])c3)o2)C(=O)NCCCN2CCOCC2)cc1,3%,nt,6%,-1.7%
O=C(Nc1nc2ccc(SC(F)F)cc2s1)c1ccc2c(c1)S(=O)(=O)c1ccccc1C2=O,-23%,-1,nt,nt
O=[N+]([O-])c1ccc(-c2nnc(-c3ccccc3)c(NCCCO)n2)cc1,-22%,-5,-23%,-3.1%
Cc1ccc(C2(C(F)(F)F)NC(=O)N3C(=C2C#N)Nc2ccccc23)cc1 (stereo not given),-1%,3,0%,-4.2%
O=C(Nc1ccc(F)cc1)NC1(C(=O)NCc2ccco2)CCCCC1,1%,10,-10%,5.2%
CC12CCC(=O)C=C1CCC1C2C(=O)CC2(C)C1CC[C@]2(O)C(=O)CO (stereo not given in full),-2%,nt,1%,0.7%
CC1CCc2c(sc(NC(=O)CSc3nc(N)cc(=O)[nH]3)c2C(N)=O)C1 (stereo not given),nt,nt,-7%,1.1%
Nc1nc(-c2ccccc2)[nH]c(=O)c1N=O,11%,-3,-8%,-0.3%
O=C(COC(=O)COc1ccccc1)NCc1ccc2c(c1)OCO2,nt,nt,-8%,-0.9%
COc1ccc(CN2C3CCC2CC(NC(=O)c2cccc(F)c2)C3)cc1 (stereo not given),-13%,nt,-8%,3.0%
CCOC(=O)C1CCCN(Cc2sccc2C)C1 (stereo not given),-7%,-4,5%,2.4%
Cc1nn(Cc2ccccc2Cl)c2sc(C(=O)NCCCn3ccnc3)cc12,-14%,1,-4%,0.4%
CCOC(=O)CC(=O)Nc1cc(Cl)ccc1O,-4%,-6,15%,0.0%
OCC[C@@H]1C[C@@H](O)[C@H](O)[C@]2(OCc3ccccc32)O1,0%,nt,20%,1.7%
COc1ccc(-c2nc(CS(=O)(=O)CC(=O)NCCc3ccc(C)cc3)c(C)o2)cc1,-1%&3%,nt,-28%,0.7%
O=C(C1=C(O)C(=O)N(CCN2CCOCC2)C1c1cccnc1)c1cc2ccccc2o1 (stereo not given),-5%,-1,-12%,1.4%
O=C(CCN1C(=O)/C(=C/c2cccs2)SC1=S)NNC(=O)c1cccc(O)c1,2%,-12,?,?
Cc1c(N=CN2CCOCC2)c(=O)n(C)c(=O)n1C,0%,1,3%,-5.4%
CCOC(=O)c1c(N)sc(C(=O)N2CCCC(C(N)=O)C2)c1C (stereo not given),nt,nt,-1%,0.7%
CCn1c(SCC(=O)O)nnc1-c1cc2c(C)nn(-c3ccccc3)c2s1,6%,6,-19%,-0.3%
COCc1[nH]nc2c1C1(CCC3(CC1)OCCO3)C(C#N)=C(N)O2,0%,0,4%,5.4%
Fc1ccc(NC(=S)N2CCN(C/C=C/c3ccccc3)CC2)c(F)c1,11%,3,-7%,2.0%
O=C(C1CCOCC1)N1CCCC(N2CCN(c3cccc(Cl)c3)CC2)C1 (stereo not given),0%,nt,7%,-4.3%
CC(NC(=O)CSc1nc2ccccc2c(=O)[nH]1)c1ccccc1 (stereo not given),-5%,-6,-15%,0.4%
COC(=O)c1cc(NC2c3ccccc3C(=O)N2CCN2CCOCC2)cc(C(=O)OC)c1 (stereo not given),-7%,-6,11%,2.1%
CCOC(=O)c1c(NC(NC(=O)C(C)C)C(Cl)(Cl)Cl)sc2c1CCC2 (stereo not given),30%,-5,-9%,-5.5%
CCOC(=O)c1oc2nc3c(cc2c1N)COC(C)(C)C3,-41%,-2,2%,-1.1%
Cn1cnnc1SCC(=O)Nc1ccc2nc(SCc3cccc4ccccc34)sc2c1,0%,-7,8%,-0.2%
CC1(C)CC(=O)C=C(OC(=O)c2ccc(Cl)cc2)C1,-17%,1,3%,2.5%
O=C(COc1ccc(Cl)cc1)Nc1nnc(C2=COCCO2)o1,-3%,0,-7%,0.2%
CCC(C)NC(=O)CSc1n[nH]c(-c2cc(Cl)ccc2OC)n1 (stereo not given),3%,-1,-12%,0.5%
Cc1cc(-c2nnc(SCC(=O)Nc3ccccc3Cl)n2C)no1,-4%,-9,-9%,-1.6%
COc1ccc(N2CCN(C(=O)c3cc4c(s3)-c3ccccc3S(=O)(=O)C4)CC2)cc1,-2%,-7,-12%,-1.8%
Cc1cccc(N2CCN(C(=O)c3cn(C)c(=O)c4c3c3ccccc3n4C)CC2)c1C,-2%,-2,1%,-0.9%
O=C(c1cc(-c2ccccc2)nc2ccccc12)N1CCN(c2ccccc2O)CC1,7%,nt,5%,0.4%
COc1cc(OC)cc(-n2nnnc2SCC(=O)N2CCCC2)c1,-4%,2,-4%,-0.1%
O=C(N/N=C/c1c[nH]c2ccccc12)c1ccccc1,-22%,nt,40%,-0.9%
COc1ccc(CCNC(=O)COC(=O)CCC(=O)c2ccc(F)cc2)cc1,1%,-6,15%,0.7%
Cc1cccc(OCC(=O)Nc2ccccc2C(=O)N2CCOCC2)c1,-2%,7,5%,1.9%
C/C(=N/n1cnnc1)c1cccnc1,-4%,2,15%,-0.6%
C=CCSc1nnc(NC(=O)c2cccc(S(=O)(=O)N(C)c3ccccc3)c2)s1,-6%,9,3%,-1.8%
CCCC(C)NS(=O)(=O)c1ccccc1 (stereo not given),-2%,-3,-5%,-3.6%
COc1ccc(C2NC(=S)NC3=C2CCc2cc(OC)ccc23)cc1 (stereo not given),-11%,-5,6%,-3.7%
CCc1nc2cc([N+](=O)[O-])c([N+](=O)[O-])cc2[nH]1,-14%,-1,-4%,2.9%
CCCn1c(N)c(C(=O)CN(C)CC(=O)Nc2ccccc2C(F)(F)F)c(=O)[nH]c1=O,nt,nt,-1%,-2.4%
CC(C)Cn1cnc2c(SCc3ccccc3)nc(N)nc21,nt,nt,3%,1.6%
COC(=O)c1c(C)noc1-c1ccc(Cl)cc1,5%,-6,-4%,-3.3%
CCOC(=O)c1cc(=O)[nH]c2ccccc12,1%,-1,-22%,0.3%
COc1ccc(Sc2nc(-c3ccccc3)ncc2C(=O)O)cc1,-3%,?,-3%,-2.2%
COc1cc2nc(SCc3ccc(Cl)cc3Cl)n(Cc3cccs3)c(=N)c2cc1OC,11%,-14,1%,-0.9%
CCCCN(C(=O)c1cc(=O)[nH]c2ccccc12)c1c(N)n(CCCC)c(=O)[nH]c1=O,0%,nt,0%,-3.4%
COc1cc(OC)cc(C(=O)N2CCC(C(=O)NCCc3ccccc3)CC2)c1,-13%,nt,15%,0.5%
NC(=O)c1c(NC(=O)COC(=O)c2ccc(S(=O)(=O)Nc3ccccc3)cc2)sc2c1CCCC2,0%,1,4%,-1.7%

# Carrying on:
SMILES,miR-21 FLuc,GLA inh pH 4.5,Rango release inh,Rango complex inh
CC(=O)NS(=O)(=O)c1ccc(NC(=O)c2ccccn2)cc1,-5%,-3,0%,5.0%
Cc1ccccc1NS(=O)(=O)c1ccc(-c2ccc(=O)[nH]n2)o1,-4%,nt,-2%,?
COc1ccc(OC)c(NC(=O)CCN2CCN(C/C=C/c3ccccc3)CC2)c1,0%,nt,3%,-1.3%
O=CN1CCN(C(=O)Cc2ccc([N+](=O)[O-])cc2)CC1,-4%,7,15%,-4.4%
Cc1noc(C)c1CS(=O)(=O)c1ccc([N+](=O)[O-])cc1,11%,5,-6%,0.5%
CCOC(=O)C1CCN(C(=O)/C=C/c2ccccc2OC)CC1,1%,8,4%,0.1%
CC(C)C(=O)Nc1c(-c2cccs2)c(=O)c2ccccc2n1C,-1%,5,5%,-1.7%
COc1cccc(S(=O)(=O)Nc2noc3ccccc23)c1,-5%,nt,1%,-2.1%
CCN1CCCC1CN=Cc1c(O)n(-c2ccccc2)c(=O)c2ccccc12 (stereo not given),-10%,-10,?,?
O=C1c2ccccc2C(O)(Cc2ccccc2)N1c1ccc2c(c1)OCO2 (stereo not given),-12%,-6,-1%,2.6%
CCOC(=O)c1c(-c2ccccc2)csc1NC(=O)c1cc2ccccc2oc1=O,1%,4,11%,2.4%
CCCCn1c(N)c(N(CCOC)C(=O)C2CCN(S(=O)(=O)c3ccc(C)cc3)CC2)c(=O)[nH]c1=O,nt,nt,7%,-2.8%
Cc1c([N+](=O)[O-])c(C(=O)N2CCCC2)nn1C,0%,-5,34%,-2.7%
CCc1nc2ccc(C(=O)Nc3cccc(C(C)=O)c3)cc2nc1CC,-6%,-5,?,-3.7%
CCOC(=O)c1c(-c2ccc(Cl)cc2)cn2ccccc12,0%,3,5%,-1.9%
O=C(O)c1ccc(NC(=O)c2ccccc2Br)c(NC(=O)c2ccccc2Br)c1,0%,nt,-8%,0.3%
CCN(CC)C(=O)c1c(Cl)nc(C)c([N+](=O)[O-])c1C,-9%,10,16%,-4.8%
CCc1cc2c(=O)c(-c3cnn(-c4ccccc4)c3)c(C)oc2c(CN2CCCCC2)c1O,-5%,5,3%,2.0%
CC(C(=O)NC1CCCCCC1)n1cc([N+](=O)[O-])cn1 (stereo not given),0%,nt,13%,-1.4%
COC(=O)c1c(C(=O)OC)c2ccccn2c1C(=O)c1ccc([N+](=O)[O-])cc1,4%,nt,4%,4.4%
CCOC(=O)N1CCN(C(=O)CSc2nnc(Cn3c(=O)sc4ccccc43)n2C)CC1,0%,1,-25%,-0.3%
Cc1ccc(/C=N/NC(=O)c2csc(C)c2)o1,-38%,-1,11%,4.6%
O=S(=O)(Cc1nnnn1-c1ccccc1)c1ccc(F)cc1,-1%,nt,25%,3.3%
